YB-1 expression – YB-1 expression inhibition. AID 434959. delta delta Cp (YB-1 minus CDIP) (no concentration beside the values). U2OS, qRT-PCR YB-1 vs CDIP delta delta Cp, 16 h; hits give high values; zero = DMSO, each unit about twofold. hit rate 0.37% among 30,000;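 active means delta delta Cp rounded down to an integer at or above 3, about 3 SD of DMSO wells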;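 further: higher means less YB-1 transcript or more CDIP transcript relative to DMSO; stock transfer was 100 nL into about 100 µL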
Shh pathway inh – Sonic Hedgehog pathway inhibition | hit rate 2.1% among 22,000 | Shh-LIGHT2 Gli-luciferase reporter, 30 h | inhibition, % (concentration not given with the values);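 active means replicate mean of 65% or more; inconclusive means mean lower but half the replicates past it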;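 further: pathway switched on by Shh-conditioned medium diluted 1 in 25 in low serum; 100 nL library stock added to about 40 µL; 0% = median of neutral wells and 100% = positive control level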
MITF inhib – inhibitors of MITF | TRPM1 promoter luciferase, luminescence, 24 h | inhibition, % (concentration not given with the values) | hit rate 0.28% among 37,000;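 active means most replicates at 85% or more, or half of them and the mean; inconclusive means half reach 85% but not the mean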;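 further: human melanocyte line stably carrying TRPM1 promoter luciferase reporter; 0% = vehicle wells and 100% = a positive control; the first replicate is given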
PD-1 reverse act – reversal of PD-1 mediated T-cell inhibition; primary human CD4 T cells, PD-L1 beads, CellTiter-Glo 96 h; activation, % (test concentration not listed); 29,000 tested, under 10 active; AID 2316;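 active means replicate mean of 50% or more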;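 further: 0% = median vehicle wells and 100% = positive control; 100 nL library stock added to about 50 µL; numbers are from one replicate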
Starred values were filed as active, the others as inactive; u = inconclusive; x = no result given.

SMILES	YB-1 expression	Shh pathway inh	MITF inhib	PD-1 reverse act
CNC[C@H]1Oc2ccc(NC(=O)Nc3c(C)noc3C)cc2CC(=O)N([C@@H](C)CO)C[C@@H]1C	0.0256	-23.5	-24.1	2.8
COc1ccc(NC(=O)Nc2ccc3c(c2)C(=O)N([C@H](C)CO)C[C@H](C)[C@H](CN(C)C)O3)cc1	-0.0554	x	-4.9	1.0
C[C@H](CO)N1C[C@H](C)[C@H](CN(C)C)Oc2ccc(NS(=O)(=O)c3cccs3)cc2C1=O	-0.181	-34.4	-0.8	0.2
COc1ccc(S(=O)(=O)Nc2ccc3c(c2)C(=O)N([C@H](C)CO)C[C@H](C)[C@H](CN(C)S(=O)(=O)c2cccs2)OCCCC[C@@H](C)O3)cc1	-0.332	-10.6	7.8	x
COc1ccc(NC(=O)Nc2ccc3c(c2)C(=O)N([C@@H](C)CO)C[C@@H](C)[C@H](CN(C)Cc2ccc4c(c2)OCO4)O3)cc1	-0.0816	12.0	-1.3	-0.6
C[C@@H]1CN([C@H](C)CO)C(=O)c2cccc(NC(=O)c3nc4ccccc4s3)c2O[C@H]1CN(C)S(=O)(=O)c1ccccc1	-0.331	u	9.1	x
Cc1ccc(F)cc1NC(=O)CSc1nnc(-c2ccccc2Cl)o1	x	x	-28.8	2.2
O=c1c2c3c(sc2nc(SCc2nc(-c4cccs4)no2)n1-c1ccccc1)CCCC3	x	x	-1.9	1.2
C[C@H]1CN([C@@H](C)CO)C(=O)c2cc(NC(=O)CCC(F)(F)F)ccc2O[C@H]1CN(C)C(=O)Nc1ccccc1	0.207	10.7	1.9	-0.1
CC(=O)Oc1ccc(N(C(C)=O)S(=O)(=O)c2ccc(Cl)cc2)cc1	0.557	x	9.1	-2.2
C[C@@H]1CN([C@@H](C)CO)C(=O)c2cc(NS(=O)(=O)c3ccc(F)cc3)ccc2O[C@H]1CN(C)Cc1ccc(C(=O)Nc2ccccc2N)cc1	0.153	x	2.1	0.0
CC(Sc1nc2ccccc2c(=O)[nH]1)C(=O)Nc1ccc(Cl)cc1 (centres undefined)	x	x	5.2	-0.8
C[C@@H]1CN([C@@H](C)CO)C(=O)c2cc(N(C)C)ccc2O[C@H]1CN(C)C	0.0313	32.8	0.8	x
COc1ccc(CN(C)C[C@@H]2Oc3ccc(NS(=O)(=O)c4ccc(F)cc4)cc3C(=O)N([C@@H](C)CO)C[C@@H]2C)cc1	-0.141	39.1	-4.5	-1.2
C[C@@H]1CN([C@@H](C)CO)C(=O)Cc2cc(NC(=O)c3ccncc3)ccc2O[C@@H]1CN(C)S(=O)(=O)c1cn(C)cn1	0.0174	-3.0	-2.6	1.7
C[C@H]1CN([C@@H](C)CO)C(=O)Cc2cc(NC(=O)C3CCCCC3)ccc2O[C@H]1CN(C)Cc1ccc(C(F)(F)F)cc1	-0.126	3.2	17.4	-1.8
COc1cc(/C=C/CO)ccc1OC/C=C(\C)CCC=C(C)C	2.35	-5.2	-57.0	-1.0
Cc1nc(SCc2cccc(C(=O)O)c2)nc2c1CCCC2	x	x	55.3	0.6
Cc1noc(C)c1S(=O)(=O)Nc1cccc2c1O[C@H](CN(C)C(=O)NC1CCCCC1)[C@H](C)CN([C@@H](C)CO)C2=O	-0.231	-8.7	1.7	0.5
O=C1Cc2ccc(F)cc2CC1C1=Cc2ccc(F)cc2CC1 (centres undefined)	0.604	16.6	6.0	-8.1

Full records as entered above:
CNC[C@H]1Oc2ccc(NC(=O)Nc3c(C)noc3C)cc2CC(=O)N([C@@H](C)CO)C[C@@H]1C in the list: YB-1 expression: 0.0256; Shh pathway inh: -23.5; MITF inhib: -24.1; PD-1 reverse act: 2.8
CC(=O)Oc1ccc(N(C(C)=O)S(=O)(=O)c2ccc(Cl)cc2)cc1 in the list: YB-1 expression: 0.557; Shh pathway inh: x; MITF inhib: 9.1; PD-1 reverse act: -2.2

(next part)
SMILES	YB-1 expression	Shh pathway inh	MITF inhib	PD-1 reverse act
COc1ccc(-n2ccc3ccccc32)cc1	-0.441	-35.7	-47.0	0.0
CC(=O)O[C@@H]1[C@@H](O)[C@H](C)O[C@@H](O[C@H]2[C@@H]3C=CO[C@@H](O[C@@H]4O[C@H](CO)[C@@H](O)[C@H](O)[C@H]4O)[C@@H]3[C@@]3(CO)O[C@@H]23)[C@@H]1OC(=O)/C=C/c1ccccc1	1.18	-12.0	-4.7	-1.0
CCOC(=O)c1c(CN2CCOCC2)n(C)c2ccc(O)cc12	0.149	19.4	-3.0	-2.5
COc1ccc(C2C(C(=O)O)c3ccccc3C(=O)N2Cc2ccc(Cl)cc2)cc1 (centres undefined)	0.257	30.5	-20.9	1.9
NCCNS(=O)(=O)c1cccc2c(Cl)cccc12	-0.000721	-6.1	3.8	2.8
CC1CCN(S(=O)(=O)c2ccc(NC(=O)c3ccc(C(C)(C)C)cc3)cc2)CC1	0.136	-60.7	40.0	-0.3
C[C@H]1CN([C@@H](C)CO)C(=O)c2cc(NC(=O)NC3CCCCC3)ccc2O[C@H]1CN(C)Cc1ccccc1	-0.722	x	-4.6	2.7
Cc1ccc(NC(=O)CSCC(N)=O)cc1C	x	x	-8.2	2.2
C[C@H](CO)N1C[C@H](C)[C@H](CN(C)C(=O)Nc2ccc3c(c2)OCO3)Oc2ccc(NS(C)(=O)=O)cc2C1=O	0.253	-13.8	-0.6	0.8
C[C@@H]1CCCCO[C@H](CN(C)C(=O)Cc2ccccc2)[C@@H](C)CN([C@H](C)CO)C(=O)c2cc(NC(=O)c3ccncc3)ccc2O1	-0.0791	12.9	6.9	1.3
C[C@H]1CN([C@@H](C)CO)C(=O)c2cccc(NS(=O)(=O)c3cccs3)c2O[C@@H]1CN(C)Cc1ccc(C(F)(F)F)cc1	0.419	17.1	-21.2	-1.6
C[C@@H]1CCCCO[C@@H](CN(C)C(=O)Nc2ccc(C(F)(F)F)cc2)[C@@H](C)CN([C@H](C)CO)C(=O)c2cc(NC(=O)NC3CCCCC3)ccc2O1	-0.066	-36.4	-13.5	-7.4
COc1ccc(S(=O)(=O)N(C)C[C@H]2Oc3ccc(NC(=O)CCCCCC(=O)Nc4ccccc4N)cc3C(=O)N([C@@H](C)CO)C[C@H]2C)cc1	-0.126	x	5.6	2.1
O=C(CSc1nnc(-c2ccccc2)n1C1CCCCC1)Nc1ccccc1	x	x	11.9	-1.8
COc1ccc(S(=O)(=O)N(C)C[C@@H]2Oc3c(NC(=O)c4ccc(-c5nccs5)cc4)cccc3C(=O)N([C@@H](C)CO)C[C@@H]2C)cc1	0.272	-20.5	-10.4	-1.2
COc1ccc(S(=O)(=O)N(C)C[C@@H]2Oc3c(NC(=O)Nc4ccccc4)cccc3C(=O)N([C@@H](C)CO)C[C@@H]2C)cc1	0.203	-1.4	9.8	1.4
COc1ccccc1NC(=O)C1=C(C)NC(=S)NC1c1ccccc1OCC(=O)O (centres undefined)	x	x	10.0	-0.9
Cc1ccc(-c2csc3ncnc(SCC(=O)Nc4ccccc4C(C)C)c23)cc1	x	x	20.8	0.0
CNC[C@H]1OCCCC[C@@H](C)Oc2ccc(NC(=O)CCC(F)(F)F)cc2C(=O)N([C@H](C)CO)C[C@@H]1C	-0.318	u	-3.8	x
O=C(NC(=O)c1cn2cc(C(F)(F)F)cc(Cl)c2n1)Nc1ccc(Cl)cc1	-0.292	-59.1	-10.0	-1.3
COc1ccccc1CNC(=O)c1ccccc1N(C)S(C)(=O)=O	x	x	-3.6	0.8
C[C@@H]1CN([C@H](C)CO)C(=O)c2cc(NC(=O)Cc3ccccc3)ccc2O[C@@H]1CN(C)C(=O)Nc1ccccc1	-0.0521	1.4	-1.3	0.1
C[C@@H]1CN([C@@H](C)CO)C(=O)Cc2cc(NC(=O)CCCCCC(=O)Nc3ccccc3N)ccc2O[C@@H]1CN(C)S(=O)(=O)c1ccc(F)cc1	-0.0978	x	-22.8	2.9
COc1ccc(Cl)cc1NC(=O)c1ccccc1N(Cc1ccccc1)S(C)(=O)=O	x	x	14.7	2.4
Cc1nn(Cc2ccc(C(=O)NC3CCCCC3)o2)c(C)c1Br	x	x	9.8	-1.4
N#C/C(=C(/N)Sc1ccc(N)cc1)c1ccccc1C(F)(F)F	1.16	4.1	-7.6	-0.5
CS(=O)(=O)N(CC(=O)Nc1c(F)cccc1F)c1cc(Cl)c(Cl)cc1Cl	x	x	4.6	1.6
COc1ncccc1C(=O)Nc1ccc(F)cc1F	-0.0807	-22.4	-5.9	-0.5
COc1ccc(NC(=O)Nc2ccc3c(c2)C(=O)N([C@H](C)CO)C[C@H](C)[C@@H](CN(C)Cc2ccncc2)O3)cc1	0.0576	x	-8.3	0.9
CN1CCN(CCCn2c(-c3ccccc3)cn3c4ccccc4nc23)CC1	x	x	-0.7	-3.0
C[C@@H]1CN([C@H](C)CO)C(=O)c2cc(NC(=O)C3CCCCC3)ccc2O[C@H]1CN(C)C(=O)Nc1ccc(C(F)(F)F)cc1	-0.0981	x	20.2	-1.3
O=C1NC(Cc2c[nH]c3ccccc23)C(=O)N2CCCC12 (centres undefined)	0.554	19.0	-0.8	0.2
C[C@@H]1CCCCO[C@@H](CN(C)Cc2ccc(C(=O)Nc3ccccc3N)cc2)[C@@H](C)CN([C@H](C)CO)C(=O)c2cc(NC(=O)C3CCCCC3)ccc2O1	-0.224	x	-21.3	1.6
CC(C)NC(=O)Nc1ccc2c(c1)C(=O)N([C@@H](C)CO)C[C@@H](C)[C@@H](CN(C)C(=O)Nc1ccc(C(F)(F)F)cc1)O2	0.141	-5.8	11.7	-2.0
Cc1ccc(NC(=O)COc2ccccc2)c(NC(=O)c2ccccc2C)c1	x	x	-0.3	-1.4
Cc1cc(C(=O)Nc2cccc3c2O[C@H](CN(C)S(=O)(=O)c2cn(C)cn2)[C@H](C)CN([C@H](C)CO)C3=O)n(C)n1	0.513	-3.6	3.3	x
COc1ccc(NC(=O)Nc2ccc3c(c2)CC(=O)N([C@@H](C)CO)C[C@@H](C)[C@@H](CN(C)S(C)(=O)=O)O3)cc1	-0.0588	x	-2.7	0.3
C[C@H]1CN([C@@H](C)CO)C(=O)c2cccc(NC(=O)c3nc4ccccc4s3)c2O[C@@H]1CN(C)CC1CC1	-0.117	11.4	-5.3	-1.0
c1nc(NCC2CCCO2)c2sc3nc(N4CCCCC4)c4c(c3c2n1)CCCC4 (centres undefined)	x	x	22.6	-0.2
CCc1cc(C)cc(OCC(O)Cn2cnc3ccccc32)c1 (centres undefined)	x	x	49.9	-5.0
Cc1c(O)ccc(-c2[nH]ncc2-c2nncn2-c2ccccc2)c1O	x	x	8.3	2.4
Cc1nc(=O)c(-c2ccccc2)c(C)n1-c1ccc(C(=O)O)cc1	0.13	-24.0	-3.7	0.0
COc1ccccc1CCNC(=O)c1cnn2c(C(F)F)cc(C)nc12	x	x	-21.1	-0.6
C[C@H]1CN([C@@H](C)CO)C(=O)c2cccc(NC(=O)c3nc4ccccc4s3)c2O[C@@H]1CN(C)Cc1ccc2c(c1)OCO2	-0.0324	57.9	61.7	x
COc1ccc(NC(=O)Nc2cccc3c2O[C@H](CN(C)S(=O)(=O)c2cn(C)cn2)[C@H](C)CN([C@@H](C)CO)C3=O)cc1	0.0444	23.6	-4.7	2.5
O=C(CSc1ccc2ccccc2n1)c1ccc2c(c1)OCCO2	x	x	-64.3	-1.4
COc1ccc(NC(=O)CN(c2ccc(F)c(Cl)c2)S(C)(=O)=O)c(OC)c1	x	x	-6.0	0.4
CC(C)NC(=O)Nc1ccc2c(c1)CC(=O)N([C@@H](C)CO)C[C@@H](C)[C@@H](CN(C)S(=O)(=O)c1ccc(Cl)cc1)O2	0.164	23.1	-7.4	-0.6
Cc1ccc(S(=O)(=O)Nc2ccc3c(c2)C(=O)N([C@H](C)CO)C[C@H](C)[C@@H](CN(C)S(C)(=O)=O)O3)cc1	-0.195	-3.4	-4.7	0.3
O=C(COc1ccc(C(=O)Nc2ccccc2Cl)cc1)Nc1ccccc1C(F)(F)F	x	x	-49.1	-0.4
Cc1nc2nc[nH]n2c(=O)c1NS(=O)(=O)c1ccc(Br)cc1	x	x	-5.2	3.7
C[C@@H]1CN([C@@H](C)CO)C(=O)c2cc(NC(=O)Cn3cnnn3)ccc2O[C@@H]1CN(C)S(=O)(=O)c1cccs1	0.279	x	-3.0	0.0
COc1cccc(OCC(=O)Nc2ccc(Sc3ccc([N+](=O)[O-])cc3)cc2)c1	x	x	25.9	0.5
CCOC(=O)CSc1nnc(-c2ccccc2)c(=O)n1-c1ccccc1	-0.492	-10.8	-22.6	0.7
C[C@H]1CN([C@@H](C)CO)C(=O)Cc2cc(NC(=O)C3CC3)ccc2O[C@H]1CN(C)Cc1ccc(Cl)c(Cl)c1	-0.0395	26.7	-11.0	0.6
C[C@H](CO)N1C[C@H](C)[C@@H](CN(C)C(=O)Nc2cccc3ccccc23)Oc2c(NC(=O)C3CCOCC3)cccc2C1=O	-0.0551	-38.0	-3.8	x

Assay outcomes deposited in PubChem by Broad Institute.

Some of the compounds tested (hit frequency here may not be typical).
